FGF22 binding: binders of human FGF22 protein, primary screen, FGF22 synaptogenesis inhibitor project, biophysical, thermal shift, single point; calls only at 9.99 µM; hit rate 1.5% among 340,000; AID 651658, 2012; recombinant FGF22 thermal shift, SYPRO orange fluorescence; percent of sucrose octasulfate shift, DMSO zero;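 active = melting point raised past a set limit in the mean and every replicate; inconclusive = no clear call; three in four hits are not shown here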
Target sequence (Q9HCT0 whole entry, looked up): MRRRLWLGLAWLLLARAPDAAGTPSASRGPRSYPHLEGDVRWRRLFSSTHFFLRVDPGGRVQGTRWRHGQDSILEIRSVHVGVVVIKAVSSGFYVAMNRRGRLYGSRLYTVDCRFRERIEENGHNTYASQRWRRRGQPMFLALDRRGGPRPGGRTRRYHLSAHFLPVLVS
RanGTP-Impb inh: inhibitors of RanGTP-importin-beta interaction, primary screen, biochemical, FRET, CFP-Ran, YFP-importin-beta, homogeneous | cell-free CFP-Ran/YFP-importin-beta FRET ratio | AID 2216, 2009 | hit rate 1.1% among 300,000 | Ran GTPase (GTP-bound) - importin-beta complex | inhibition, % (test concentration not listed);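 active = most replicates above 15%; inconclusive = exactly half above 15%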;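 note: 0% = DMSO wells and 100% = Ran loaded with GDP instead of GTP; wells of about 40 µL received 100 nL stock; the first replicate is given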
Vif TR-FRET: inhibitors of Vif binding to APOBEC3G peptide, primary screen, biochemical, TR-FRET, GST-Vif 1-94, biotin-A3G peptide, dose response retest (AID 1117319); TR-FRET GST-Vif / biotin-A3G peptide binding; higher % means a stronger effect; test concentration not given here; strong numbers were not always called active; inhibition, %, or IC50 in µM where a hit was titrated; hit rate 0.57% among 260,000;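 active = above the screen mean plus three standard deviations and confirmed in dose response; inconclusive = results disagree or hit not tested in dose response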;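 note: Vif residues 1-94 fused to GST binding biotinylated APOBEC3G peptide 110-148; 0% = full assay without inhibitor and 100% = GST in place of GST-Vif; retest series ran down from 100 µM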
AF4-AF9 inh: inhibitors of AF4 peptide binding to AF9, primary screen, biochemical, AlphaScreen, biotin-AF4 peptide, FLAG-AF9, single point; hit rate 0.47% among 350,000; inhibition, % at 10 µM; AID 651704, 2012;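 active = every replicate reaching a set inhibition limit, whatever the replicate mean, cut at about 25% in these data; inconclusive = mean inhibition reaches that limit but some replicates miss it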;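 note: 0% = plate neutral control median and 100% = total signal loss; the record names both 10 and 1 µM as test concentration; the first replicate is given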
UCH37 inh: inhibitors of human UCH37 deubiquitinase, primary screen, biochemical, Ub-AMC cleavage, fluorescence; inhibition, % (no concentration beside the values); Ubiquitin carboxyl-terminal hydrolase isozyme L5 (Homo sapiens), Q9Y5K5; purified proteasome/UCH37; AID 588478, 2011; hit rate 0.33% among 330,000;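 active = mean of two replicates above 20%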;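 note: 0% = compound-free wells with enzyme and 100% = wells lacking proteasome; stock transfer was 100 nL into about 20 µL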
Target sequence (Q9Y5K5 whole entry, looked up): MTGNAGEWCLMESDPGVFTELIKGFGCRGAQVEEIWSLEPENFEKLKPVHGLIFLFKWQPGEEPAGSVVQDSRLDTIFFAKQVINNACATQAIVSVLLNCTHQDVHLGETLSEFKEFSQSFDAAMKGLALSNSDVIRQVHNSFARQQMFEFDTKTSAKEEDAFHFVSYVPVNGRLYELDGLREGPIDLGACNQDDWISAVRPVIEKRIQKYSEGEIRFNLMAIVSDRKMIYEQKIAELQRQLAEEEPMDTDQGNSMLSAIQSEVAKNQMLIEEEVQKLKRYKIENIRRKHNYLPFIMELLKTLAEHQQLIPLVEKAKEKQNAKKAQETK
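Material: Human UCH37 enzyme supplied as purified proteasome complex | Schedule: 30 min compound-proteasome preincubation then 25 min substrate reaction, room temperature | Detection: AMC fluorescence from Ub-AMC cleavage, excitation 355 nm, emission 460 nm | Benchmarks: Wells without proteasome as full block, compound-free enzyme plus substrate as uninhibited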
HNF4A DNA FP: change in binding of human HNF4A to DNA, primary screen, biochemical, fluorescence polarization, FITC-DNA; Hepatocyte nuclear factor 4-alpha (Homo sapiens), P41235; 1 h; activity change, % at 10 µM; hit rate 0.3% among 360,000; in the data active = activity change above about 30%, passing the limit was not always enough;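 note: controls were the assay level and a saturating level of protein; the project sought stronger binding though the title names inhibitors; some compounds called inactive have numbers as strong as hits; positive values seem to mean higher polarization but the record does not say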
Target sequence (P41235 whole entry, looked up): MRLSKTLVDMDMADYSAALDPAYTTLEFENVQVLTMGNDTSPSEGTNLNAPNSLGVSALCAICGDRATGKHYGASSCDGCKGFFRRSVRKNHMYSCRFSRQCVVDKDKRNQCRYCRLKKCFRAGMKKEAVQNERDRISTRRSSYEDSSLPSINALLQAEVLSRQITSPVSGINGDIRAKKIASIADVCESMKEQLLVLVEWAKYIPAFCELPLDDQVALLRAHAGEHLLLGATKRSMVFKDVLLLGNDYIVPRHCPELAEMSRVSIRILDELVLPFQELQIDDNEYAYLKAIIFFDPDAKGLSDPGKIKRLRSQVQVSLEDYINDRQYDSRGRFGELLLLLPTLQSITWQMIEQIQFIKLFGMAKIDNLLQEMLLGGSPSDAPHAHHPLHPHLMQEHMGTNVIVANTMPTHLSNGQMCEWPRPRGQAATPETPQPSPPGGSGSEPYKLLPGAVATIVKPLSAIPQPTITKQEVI
Ecoli growth: E. coli growth inhibition, primary screen, OD600 | Escherichia coli growth, 23 h; active compounds read low | OD600 absorbance (test concentration not listed) | AID 1053175, 2014 | hit rate 0.21% among 330,000;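 active = OD600 absorbance below the run mean of sample wells minus 3.6 SD, in any replicate, cut at about 0.56 in these data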;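 note: stock transfer was 300 nL into about 60 µL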
* = called active by the depositor. These rows are one share of the data. The share of hits here may be higher or lower than overall.

For CC(NC(=O)C(=O)N1CCOCC1)C(c1cccs1)N1CCN(c2ccc(F)cc2)CC1 (stereo unspecified) the results were FGF22 binding inactive, RanGTP-Impb inh 1.8, Vif TR-FRET 3%, AF4-AF9 inh 1.9, UCH37 inh 2.4, HNF4A DNA FP 2.9 and Ecoli growth 0.68.
C#CCNC(=O)C[C@@H]1C[C@@]2(C(=O)OC)CC(C)(C)CC=C2N(CCCCCCCC)C1=O was read as FGF22 binding inactive, AF4-AF9 inh -1.1 and HNF4A DNA FP 6.1.
O=C(CCCC(=O)n1cnc2ccccc21)n1cnc2ccccc21 was read as RanGTP-Impb inh 0.6, Vif TR-FRET 3%, UCH37 inh -1.0, HNF4A DNA FP -0.8 and Ecoli growth 0.63.
Screening O=C(NCC(c1ccco1)N1CCCCC1)C(c1ccccc1)c1ccccc1 (stereo unspecified) returned FGF22 binding inactive, RanGTP-Impb inh 3.6, Vif TR-FRET 8%, AF4-AF9 inh 2.1, UCH37 inh 4.5, HNF4A DNA FP 0.0 and Ecoli growth 0.72.
For COc1ccc(C(CCN2CCOCC2)c2c(O)cc(OC)cc2OC)cc1 (stereo unspecified) the results were FGF22 binding inactive, RanGTP-Impb inh 2.4, Vif TR-FRET 8%, AF4-AF9 inh -18, UCH37 inh 1.8, HNF4A DNA FP 0.8 and Ecoli growth 0.7.
`COc1ccc(-n2c(COc3ccc(Cl)cc3)nnc2SCc2ccc(C#N)cc2)cc1` gave RanGTP-Impb inh -2.7, Vif TR-FRET 28%, UCH37 inh 1.2, HNF4A DNA FP -0.8 and Ecoli growth 0.73.
`Cc1ccc(/C=C/c2onc(C)c2S(=O)(=O)N2CCC(C(=O)N3CCN(C)CC3)CC2)cc1` gave FGF22 binding inactive, RanGTP-Impb inh -0.6, AF4-AF9 inh 17, UCH37 inh 5.3, HNF4A DNA FP 2.1 and Ecoli growth 0.64.
`Cc1ccc(OC/C(O)=C(\C#N)c2nc3ccccc3s2)cc1` gave FGF22 binding inactive, RanGTP-Impb inh -7.6, Vif TR-FRET -3%, AF4-AF9 inh -1.3, UCH37 inh 2.7, HNF4A DNA FP -1.2 and Ecoli growth 0.65.
Screening CC(C)c1ccc(S(=O)(=O)NCCCN2CCOCC2)cc1 returned FGF22 binding inactive, Vif TR-FRET -4%, AF4-AF9 inh -3.4 and HNF4A DNA FP -3.0.
COCCn1c(SCC(=O)Nc2ccc(C(C)=O)cc2)nnc1-c1ccco1 was read as FGF22 binding inactive, RanGTP-Impb inh -2.1, AF4-AF9 inh -20, UCH37 inh 0.6, HNF4A DNA FP -2.7 and Ecoli growth 0.68.
Screening N/C(CC(=O)NCCOc1ccccc1)=N\O returned RanGTP-Impb inh -1.4, Vif TR-FRET inconclusive and HNF4A DNA FP 1.5.
`C=CCn1c(=O)c2ccccc2n2c(SCC(=O)Nc3sc(C(=O)N(CC)CC)c(C)c3C(=O)OCC)nnc12` gave FGF22 binding inactive, RanGTP-Impb inh -1.6, AF4-AF9 inh -2.8, UCH37 inh 4.3, HNF4A DNA FP 26 and Ecoli growth 0.73.
Screening Cc1c(-c2nnc(SCC(=O)O)n2-c2ccccc2Br)nnn1-c1ccccc1 returned RanGTP-Impb inh -0.6, Vif TR-FRET 2%, UCH37 inh 1.6, HNF4A DNA FP -1.6 and Ecoli growth 0.67.
`N#CC1(c2ccccc2)CCCN1C(=O)c1ccco1` (stereo unspecified) gave RanGTP-Impb inh 0.1, Vif TR-FRET 1%, UCH37 inh 2.6, HNF4A DNA FP 4.2 and Ecoli growth 0.74.
Screening Cc1occc1C(=O)NNC(=S)Nc1cccc([N+](=O)[O-])c1 returned RanGTP-Impb inh -0.8, Vif TR-FRET 7%, UCH37 inh 4.1, HNF4A DNA FP -1.1 and Ecoli growth 0.73.
For C[C@H](CO)N1C[C@H](C)[C@@H](CN(C)S(=O)(=O)c2cccs2)Oc2c(NC(=O)Cc3ccccc3)cccc2C1=O the results were FGF22 binding inactive, AF4-AF9 inh -7.8, UCH37 inh 0.8 and HNF4A DNA FP -4.6.
For CCN1CCN(c2ccc([N+](=O)[O-])cc2S(=O)(=O)N2CCOCC2)CC1 the results were FGF22 binding inactive, RanGTP-Impb inh 0.2, Vif TR-FRET 1%, AF4-AF9 inh -6.5, UCH37 inh 5.2, HNF4A DNA FP 5.2 and Ecoli growth 0.61.
CCOC(=O)CSc1nnc(-c2ccc(S(=O)(=O)NCc3cccs3)cc2)o1 was read as RanGTP-Impb inh 0.5, Vif TR-FRET -6%, UCH37 inh 6.0, HNF4A DNA FP 0.3 and Ecoli growth 0.65.
CCOC(=O)c1sc(NC(=O)c2sc(C)nc2C)nc1C was read as FGF22 binding inactive, RanGTP-Impb inh 3.5, Vif TR-FRET 3%, AF4-AF9 inh -0.4, UCH37 inh 8.7, HNF4A DNA FP -0.1 and Ecoli growth 0.67.
Screening Cc1cccc(NC(=O)CCSc2nncn2C)c1 returned RanGTP-Impb inh 1.5, Vif TR-FRET 6%, UCH37 inh -1.4, HNF4A DNA FP 2.7 and Ecoli growth 0.67.
Screening CN(C)Cc1c(C(=O)N/N=C/CCc2ccccc2)nnn1-c1nonc1N returned FGF22 binding inactive, RanGTP-Impb inh -0.4, AF4-AF9 inh 0.2 and HNF4A DNA FP 1.8.
Screening Cc1ccc(-c2nc(CSCC(=O)NCCCN3CCOCC3)c(C)o2)cc1 returned RanGTP-Impb inh 4.0, Vif TR-FRET 1%, UCH37 inh 2.2, HNF4A DNA FP 2.3 and Ecoli growth 0.7.
Screening c1ccc(CCc2nn3c(Cc4ccccc4)nnc3s2)cc1 returned RanGTP-Impb inh inconclusive, Vif TR-FRET -3%, UCH37 inh 3.2, HNF4A DNA FP -3.6 and Ecoli growth 0.65.
For Cc1cccc(C(=O)NCC(=O)N2CCCC2)c1 the results were FGF22 binding inactive, RanGTP-Impb inh -2.5, Vif TR-FRET 7%, AF4-AF9 inh 1.2, UCH37 inh 2.7, HNF4A DNA FP 5.0 and Ecoli growth 0.73.

Random excerpt: two compounds from above, in no set order.
Screening c1ccc(CCc2nn3c(Cc4ccccc4)nnc3s2)cc1 returned RanGTP-Impb inh inconclusive, Vif TR-FRET -3%, UCH37 inh 3.2, HNF4A DNA FP -3.6 and Ecoli growth 0.65.
`Cc1ccc(OC/C(O)=C(\C#N)c2nc3ccccc3s2)cc1` gave FGF22 binding inactive, RanGTP-Impb inh -7.6, Vif TR-FRET -3%, AF4-AF9 inh -1.3, UCH37 inh 2.7, HNF4A DNA FP -1.2 and Ecoli growth 0.65.

More structures follow:
O=C(CCc1ccc(S(=O)(=O)N2CCOCC2)cc1)Nc1nc(COc2ccccc2)cs1 was read as RanGTP-Impb inh 1.7, Vif TR-FRET -2%, UCH37 inh 2.4, HNF4A DNA FP -4.9 and Ecoli growth 0.7.
`CCN1CCN(c2ccc(S(=O)(=O)N3CCCC3)cn2)CC1` gave FGF22 binding inactive, RanGTP-Impb inh -2.1, Vif TR-FRET -3%, AF4-AF9 inh 0.2, UCH37 inh 4.3, HNF4A DNA FP 1.6 and Ecoli growth 0.71.
For COc1ccc(C(C)(C)C)cc1NC(=O)c1ccc[n+]([O-])c1 the results were FGF22 binding inactive, RanGTP-Impb inh 1.3, AF4-AF9 inh -11, UCH37 inh -0.5, HNF4A DNA FP -1.4 and Ecoli growth 0.71.
O=C(Cn1c2ccccc2c(=O)c2cc([N+](=O)[O-])ccc21)Nc1ccccc1Cl was read as FGF22 binding inactive, RanGTP-Impb inh -9.9, AF4-AF9 inh -2.1 and HNF4A DNA FP 1.8.
For CCN1CCN(CCCNC(=O)CCC(=O)N2CCOc3ccc(Cl)cc32)CC1 the results were FGF22 binding inactive, RanGTP-Impb inh 0.1, AF4-AF9 inh 0.7, UCH37 inh 3.6, HNF4A DNA FP -0.9 and Ecoli growth 0.76.
COc1ccc(N2CCN(C(=O)COC(=O)CC(NC(N)=O)c3ccc(Cl)cc3)CC2)cc1 (stereo unspecified) was read as FGF22 binding inactive, AF4-AF9 inh -0.8 and HNF4A DNA FP 2.2.
CCC1CCCCN1C(=O)c1ccc([N+](=O)[O-])o1 (stereo unspecified) was read as FGF22 binding inactive, RanGTP-Impb inh -0.3, AF4-AF9 inh -0.3, UCH37 inh 4.5, HNF4A DNA FP -7.2 and Ecoli growth 0.63.
`CCCS(=O)(=O)N1CCCC(C(=O)NCCCN(Cc2ccccc2)C(C)C)C1` (stereo unspecified) gave RanGTP-Impb inh 3.7, Vif TR-FRET 9%, UCH37 inh -2.6, HNF4A DNA FP -1.1 and Ecoli growth 0.76.
`Cc1cc(N2CCOCC2)nc2ccc(NC(=O)CCC(=O)N3CCN(c4ccc(F)cc4)CC3)cc12` gave RanGTP-Impb inh 0.7, AF4-AF9 inh 1.6, UCH37 inh -77, HNF4A DNA FP 2.4 and Ecoli growth 0.67.
Screening COC(=O)C1=C(C)NC(=O)NC1c1ccc2ccccc2c1 (stereo unspecified) returned FGF22 binding inactive, RanGTP-Impb inh 1.3, AF4-AF9 inh 6.6, UCH37 inh 4.3, HNF4A DNA FP -1.0 and Ecoli growth 0.67.
Cc1ccc(N2CCN(CC(O)COC3CCCCC3)CC2)cc1 (stereo unspecified) was read as RanGTP-Impb inh -3.5, Vif TR-FRET -2%, UCH37 inh 1.1, HNF4A DNA FP -2.8 and Ecoli growth 0.66.
Screening COc1cccc(C(=O)N=c2sc3c(C)ccc(OC)c3n2C)c1 returned FGF22 binding inactive, RanGTP-Impb inh 1.9, Vif TR-FRET inconclusive, AF4-AF9 inh -3.7, UCH37 inh -50, HNF4A DNA FP 2.6 and Ecoli growth 0.77.
Screening COc1ccc(OC)c(NC(=O)C23CC4CC(C2)CC(n2cnc(Br)n2)(C4)C3)c1 returned RanGTP-Impb inh 1.7, Vif TR-FRET -3%, UCH37 inh 5.5, HNF4A DNA FP 2.7 and Ecoli growth 0.71.
For COc1cc(S(=O)(=O)N2CCOCC2)ccc1NC(=O)c1cc2c(s1)CCC2 the results were RanGTP-Impb inh 1.5, Vif TR-FRET -1%, UCH37 inh 2.6, HNF4A DNA FP 1.0 and Ecoli growth 0.76.
For CN1CCN(Cc2c(O)ccc3cc(-c4ccccn4)c(=O)oc23)CC1 the results were FGF22 binding inactive, RanGTP-Impb inh 144*, Vif TR-FRET 10%, AF4-AF9 inh -5.2, UCH37 inh inactive, HNF4A DNA FP -2.0 and Ecoli growth 0.76.
Screening COc1ccc(NC(=O)c2cc(OC)c(OC)cc2OC)c(S(=O)(=O)N2CCOCC2)c1 returned RanGTP-Impb inh -1.9, Vif TR-FRET 1%, UCH37 inh 3.2, HNF4A DNA FP -21 and Ecoli growth 0.69.
C=C1C(=O)C23C(O)C1CCC2C12CCCC(C)(COC(C)=O)C1C(O)C3(O)OC2 (stereo unspecified) was read as FGF22 binding inactive, AF4-AF9 inh -7.4 and HNF4A DNA FP -5.3.
Screening CCCc1nnc(SCC(=O)N(CC)CC)n1CC1CCCO1 (stereo unspecified) returned FGF22 binding inactive, RanGTP-Impb inh -3.2, Vif TR-FRET -3%, AF4-AF9 inh -1.5, UCH37 inh 6.2, HNF4A DNA FP 0.6 and Ecoli growth 0.67.
Screening CC(C)(C)c1ccc(S(=O)(=O)NC(=O)C2(C)CCN2C(=O)C2(c3ccccc3)CC2)cc1 (stereo unspecified) returned FGF22 binding inactive, AF4-AF9 inh -2.4 and HNF4A DNA FP 0.1.
`CCOC(=O)c1c(NC(=O)CC(C)C)sc(C(C)=O)c1C` gave RanGTP-Impb inh 0.6, Vif TR-FRET -7%, UCH37 inh 3.1, HNF4A DNA FP 0.1 and Ecoli growth 0.74.

From PubChem
